Screens (PubChem)
Env fusion inh: inhibitors of HIV Env-mediated cell fusion; HeLa-JRFL Env/CEM21 cell fusion, luciferase; inhibition, % at 12.3 µM; 360,000 compounds, 1.1% hits;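 active = mean replicate inhibition score of at least 50 and every replicate individually at or above 50; inconclusive = only one of the two criteria met; inactive = mean below 50 and not all replicates reaching 50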;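 note: 0% = plate neutral controls and 100% = maraviroc near 300 nM; one replicate is shown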
eIF4H FP inh: inhibitors of RNA binding by human eIF4H. eIF4H fluorescence polarization binding assay. inhibition, % at 35 µM. 290,000 compounds, 0.94% hits;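 active = 50% or more with normal probe brightness, or confirmed in later tests; inconclusive = above 50% with abnormal brightness, or retests that disagree; inactive = below 50% or failed in later tests; about a fifth of its hits are not listed in these tables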;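 note: calls also rest on retests at 20 µM and on dose response follow-up; 0% = protein and probe with vehicle and 100% = probe without protein; strong numbers were not always called active; many hits fall short of the cut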
Rce1 inhib: inhibitors of yeast Ras-converting enzyme. yeast membranes, quenched prenylated peptide cleavage fluorescence. 290,000 compounds, 0.27% hits. Q03530. calls only;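 active = fall in fluorescence gain of 50% or more versus controls, with final raw signal at or below 3038400; inconclusive = same 50% fall but final raw signal above 3038400; inactive = fall in fluorescence gain under 50%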;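 note: plate controls were neutral control wells for no effect and wells lacking membranes for full effect; tested at 10 µM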
Target sequence (Q03530 whole entry, looked up): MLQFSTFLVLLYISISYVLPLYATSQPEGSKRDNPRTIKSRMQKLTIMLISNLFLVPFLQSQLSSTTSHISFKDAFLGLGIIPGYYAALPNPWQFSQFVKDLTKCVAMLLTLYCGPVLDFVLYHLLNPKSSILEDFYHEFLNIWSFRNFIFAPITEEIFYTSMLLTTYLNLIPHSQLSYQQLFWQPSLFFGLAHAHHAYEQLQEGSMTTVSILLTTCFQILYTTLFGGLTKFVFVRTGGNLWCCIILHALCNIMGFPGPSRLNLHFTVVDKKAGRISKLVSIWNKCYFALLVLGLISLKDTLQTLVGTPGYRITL
MT1-MMP act inh: inhibitors of human MT1-MMP activation; P50281; HT1080 RFP-PRO-GFP cells, GFP/RFP ratio fluorescence, overnight; percent of plate control window, DMSO zero; GFP/RFP ratio change, % at 20 µM; 360,000 compounds, 0.061% hits; AID 651647;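 active = GFP/RFP ratio change of at least 30% with cell ATP level not reduced by more than half and red fluorescence within 50% of control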; note: strong numbers were not always called active
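Assay system: RFP-PRO-GFP reporter HT1080 cells; read-out basis: GFP/RFP fluorescence ratio; benchmarks: DMSO wells and RFP-L50D-GFP cells; doses: 20 µM single dose, 1% DMSO; schedule: overnight cell settling, then overnight compound exposure, 37 °C, 5% CO2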
UUG fidelity: yeast start codon fidelity modulation | S. cerevisiae UUG-firefly luciferase reporter, luminescence/redox ratio | activity score, % at 18.7 µM | 350,000 compounds, 0.13% hits | AID 602363;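 active = replicate mean at a twofold rise or more, about +100% in these data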;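 note: firefly luciferase made from a UUG start codon reports start codon fidelity; reporter light over untreated wells divided by growth signal over untreated wells; some hits fall short of that in this replicate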
CSC inhib: cancer stem cell inhibition. cancer stem cell-like cells viability, luminescence. inhibition, % at 7.5 µM. 300,000 compounds, 1.1% hits;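 active = mean at 75% or more and at least half the replicates too; inconclusive = mean and replicates disagree; tested in HMLE shEcad cells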;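 note: 0% = median of negative and 100% = median of positive control wells; the first replicate is given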
PABP polyA inh: PABP-poly(A) binding inhibition; P11940; 290,000 compounds, 1% hits; inhibition, % at 35 µM; PABP-poly(A) RNA binding, fluorescence polarization;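 active = 50% or more with normal probe brightness, or confirmed in later tests; inconclusive = above 50% with abnormal brightness, or retests that disagree; inactive = below 50% or failed in later tests; about a fifth of its hits are not listed in these tables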;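 note: calls also rest on retests at 20 µM and on dose response follow-up; controls were probe without protein and protein plus probe with vehicle; some compounds called inactive have numbers as strong as hits; many hits fall short of the cut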
Target sequence (P11940 whole entry, looked up): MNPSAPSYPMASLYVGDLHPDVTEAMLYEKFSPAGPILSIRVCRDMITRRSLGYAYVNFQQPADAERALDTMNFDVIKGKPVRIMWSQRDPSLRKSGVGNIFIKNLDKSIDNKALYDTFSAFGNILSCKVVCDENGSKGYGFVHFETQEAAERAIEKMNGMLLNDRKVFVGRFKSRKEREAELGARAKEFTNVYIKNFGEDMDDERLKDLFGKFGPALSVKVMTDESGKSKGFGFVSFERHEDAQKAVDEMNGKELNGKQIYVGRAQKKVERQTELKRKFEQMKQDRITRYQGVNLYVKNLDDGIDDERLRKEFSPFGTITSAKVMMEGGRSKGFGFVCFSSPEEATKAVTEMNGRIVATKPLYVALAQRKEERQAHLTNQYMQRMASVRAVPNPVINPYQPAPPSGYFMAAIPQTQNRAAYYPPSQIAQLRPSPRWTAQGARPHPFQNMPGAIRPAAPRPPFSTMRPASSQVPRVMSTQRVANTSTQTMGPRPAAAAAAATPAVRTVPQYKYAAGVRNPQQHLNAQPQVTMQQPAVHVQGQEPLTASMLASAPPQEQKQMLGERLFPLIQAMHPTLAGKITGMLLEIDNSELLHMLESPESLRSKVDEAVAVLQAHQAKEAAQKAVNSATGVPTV
MT1-MMP act inh RFP: also measured in MT1-MMP act inh; calls as there; RFP signal change, %; measured here: RFP expression control read;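 0 = vehicle wells; hits needed this value within 50% of zero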
Starred values were filed as active, the others as inactive; i = inactive; ? = inconclusive; . = not tested or not shown; & = joins results of further samples.

Order of values – PABP polyA inh	UUG fidelity	CSC inhib	MT1-MMP act inh	eIF4H FP inh	Env fusion inh	Rce1 inhib	MT1-MMP act inh RFP
1) CCOC(=O)c1nn(-c2ccc(Cl)cc2)c2nc(Nc3ccccc3)cc(=O)n12
    -1.3	-17.4	7.4	-1.8	-6.6	.	i	1.5
2) CN(C)c1ccc(CNCC2CCCO2)cc1 (stereo unspecified)
    9.4	-12.7	-7.1	2.8	3.6	-104.3	i	4.0
3) CCC(C)COC(c1ccccc1)(c1ccccc1)C(Oc1nc(C)cc(C)n1)C(=O)O (stereo unspecified)
    0.1	-3.5	12.6	-3.7	-8.9	16.1	i	3.4
4) COc1cc(-c2nc(Cc3c(F)cccc3Cl)no2)cc(OC)c1OC
    ?	-6.8	-8.9	-1.7	-15.0	.	i	1.5
5) Cc1ccc(Sc2ccc(CN3CCCCC3)cc2[N+](=O)[O-])cc1
    -13.0	.	6.0	10.3	-6.1	13.9	i	-1.7
6) CCOc1ccc(OCCC(=O)OCC(=O)Nc2cc(S(=O)(=O)N3CCOCC3)ccc2OC)cc1
    .	-7.8	.	0.4	.	-2.4	.	5.0
7) O=C(NCC1CCCCC1)C1CCCN(C(=O)NC2CCCCC2)C1 (stereo unspecified)
    0.2	-16.1	-1.1	8.6	3.1	22.0	i	-6.9
8) CC(C)CC(=O)Nc1nnc(SCC(=O)NCc2ccco2)s1
    3.5	.	-7.6	-2.6	-9.5	7.6	i	6.9
9) O=C(COc1ccc([N+](=O)[O-])cc1)NNC(=O)c1cccnc1
    -2.1	-12.9	-2.9	1.4	-3.7	-11.4	i	5.2
10) O=C1CCCN1c1ccc(C(=O)N(Cc2nnc(-c3ccc(Cl)cc3)o2)C2CC2)cc1
    .	-7.8	4.3	3.1	.	0.7	i	1.6
11) COc1cc(/C=C2\SC(=S)N(C(C(=O)O)c3ccccc3)C2=O)cc(OC)c1OC (stereo unspecified)
    10.6	7.0	15.8	4.9	3.9	-2.6	i	5.0
12) Cc1ccc(Cn2c(C3CCCN3c3nc(-c4cc(Cl)c(N)c(Cl)c4)cs3)nc3cc(Cl)c(Cl)cc32)cc1 (stereo unspecified)
    .	-19.0	21.9	-9.0	.	-39.8	i	-4.7
13) CCOC(=O)c1cc(NC(=O)N2CCCCC2)c(C)nc1C
    3.8	0.4	.	-2.6	1.6	-6.4	i	2.9
14) COC(=O)Nc1ccc(S(=O)(=O)N2CCCC(C(=O)N3CCOCC3)C2)cc1 (stereo unspecified)
    0.1	-9.9	0.9	1.4	-2.4	4.8	i	-1.8
15) COc1ccc(/C(C)=N/NC(=O)C2CC2)cc1
    -4.4	.	1.7	-0.1	-8.1	-31.9	i	1.7
16) Cc1ccc(CNC(=O)c2cc3c(s2)CS(=O)(=O)C3)cc1
    1.0	-8.4	-10.5	0.3	2.5	2.1	i	2.3
17) C=CCN1C(=O)C2C3C=CC(C2C1=O)C1C2C(=O)N(CC=C)C(=O)C2C31 (stereo unspecified)
    -4.4	-7.1	8.1	-1.7	-3.5	-2.3	i	1.0
18) CC(=O)Nc1ccc(S(=O)(=O)N2CCN(c3cc(C)nc4ccccc34)CC2)cc1
    4.6	-29.9	-1.3	-0.6	-1.8	-5.1	i	2.9
19) CC(=O)Nc1ccc(NC(=O)C2CC(=O)N(Cc3ccco3)C2)cc1 (stereo unspecified)
    .	-8.2	.	2.0	.	-25.7	.	4.2
20) Cc1cccc2c(=O)cc(C)n(Cc3ccccc3)c12
    6.0	.	11.2	-8.1	-5.3	.	i	-1.9
21) COc1cccc(C(=O)Nc2ccc(NC(=O)C3CCCCC3)nc2)c1
    5.1	6.9	.	4.4	-6.1	3.6	i	-3.3
22) O=C(COC(=O)c1cc([N+](=O)[O-])ccc1N1CCOCC1)Nc1c(Cl)cccc1Cl
    .	.	-12.7	1.5	.	-11.7	i	-0.2
23) CC(C)(C)CC(C)(C)NC(=O)Nc1cccc([N+](=O)[O-])c1
    6.4	2.8	-0.9	2.1	-7.5	20.7	i	-17.5
24) Cc1cccc(NC(=O)c2cc(=O)c3ccccc3o2)c1
    -4.0	-9.7	-7.3	-2.4	-4.4	-3.9	i	-3.4
25) O=C(COC(=O)CSc1ccc2ccccc2c1)Nc1ccccc1OC(F)F
    -8.0	-11.9	2.3	1.0	-6.8	.	i	1.1
26) COc1ccc(C(=O)NCCNC(C)=O)cc1S(=O)(=O)NCc1ccc(Cl)cc1
    15.1	-14.8	7.9	8.0	8.6	-54.0	i	8.2
27) COc1ccccc1CNC(=O)CSc1ccsc1[N+](=O)[O-]
    -9.8	.	-12.8	6.1	3.9	-4.6	i	-6.1
28) CN(C)C1=NC[C@H](Cc2ccccc2)N1CCCC1CCCC1
    .	150.7*	35.6	.	.	9.2	.	.
29) CNC(=O)N(O)C1N(C)C(=O)N(CC(=O)OC)C1(C)C (stereo unspecified)
    -1.3	-9.7	-6.3	1.4	-4.7	-37.1	i	2.5
30) CCOC(=O)C1CCCN(Cc2nc3ccc([N+](=O)[O-])cc3c(=O)n2-c2ccc(OC)cc2OC)C1 (stereo unspecified)
    8.9	13.3	-22.1	-1.2	-8.8	8.9	i	1.6
31) CCC(=O)Nc1ccc(NC(=O)c2cccc(OC)c2)nc1
    -9.4	-24.0	13.8	7.8	-1.3	-161.3	i	7.6
32) CSCCC(NC(=O)c1cccc(S(=O)(=O)N2CCOCC2)c1)C(=O)Nc1ccc(F)cc1 (stereo unspecified)
    -0.6	7.2	16.1	-0.6	1.6	.	i	-1.6
33) CC(C)CC(=O)Nc1nnc(SCC(=O)NCc2ccc3c(c2)OCO3)s1
    3.9	.	.	-2.7	0.1	-11.0	i	-4.1
34) COc1ccccc1NC(=O)NCC(c1ccco1)N1CCCCC1 (stereo unspecified)
    -19.0	.	-8.4	7.5	-10.5	4.6	i	3.8
35) Cc1ccc2cc(CN(c3ccc(C)c(C)c3)S(C)(=O)=O)c(=O)[nH]c2c1
    4.0	.	-9.3	-8.4	-5.1	-6.9	i	-4.2
36) CCOc1ccc(CN2CCNC(=O)C2CC(=O)N(C)C2CCCCC2)cc1 (stereo unspecified)
    2.5	-15.0	-14.2	0.4	-2.5	7.3	i	4.9
37) COc1ccc(CCn2cnc3c([nH]c4ccccc43)c2=O)cc1
    -2.6	.	-11.6	-4.7	-12.1	-7.8	i	-3.5
38) CC(NC(=O)C1CCC(=O)N1Cc1ccccc1Cl)c1ccccc1 (stereo unspecified)
    5.2	0.7	-11.5	0.6	0.1	3.6	i	-1.1
39) COc1ccc(/C=C/C(=O)NCc2cn(C)nc2C)cc1COc1ccc(Cl)cc1Br
    2.5	-16.0	0.3	7.7	0.2	.	i	3.8
40) CCCS(=O)(=O)N1CCCC(C(=O)NCCCN(Cc2ccccc2)C(C)C)C1 (stereo unspecified)
    3.3	-4.4	14.6	-2.0	-4.6	.	i	4.5

Copied from the list.
For MT1-MMP act inh, compound 27 is entered as 6.1
For MT1-MMP act inh, compound 25 is entered as 1.0

New compounds follow:
Order of values – PABP polyA inh	UUG fidelity	CSC inhib	MT1-MMP act inh	eIF4H FP inh	Env fusion inh	Rce1 inhib	MT1-MMP act inh RFP
41) O=C(CC(=O)N1CCOCC1)N1CCOCC1
    .	-16.0	.	1.0	.	6.0	.	4.3
42) CCOc1ccsc1C(=O)O
    12.9	.	4.3	9.3	3.4	-8.0	i	6.4
43) CCN(Cc1ccccc1)C(=O)c1cc2c(=O)oc3ccc(C)cc3c2s1
    4.0	-14.1	-4.7	2.7	-4.9	-14.3	i	-2.2
44) CCCCc1cc(=O)oc2cc(C)cc(OCC(=O)NCC3CCC(C(=O)O)CC3)c12 (stereo unspecified)
    -7.2	-3.0	5.0	4.8	-1.9	.	i	3.3
45) CC1(C(=O)NS(=O)(=O)c2cccc(F)c2)CCN1C(=O)C/C=C/c1ccccc1 (stereo unspecified)
    .	1.6	.	-0.7	.	2.2	.	2.2
46) Cn1c[n+](C)cc1-c1ccc(/C(N)=N/O)cc1
    1.5	.	-4.8	-2.5	9.7	-9.5	i	4.6
47) C=CCN(c1ccc(C(=O)OC)cc1)S(=O)(=O)c1ccccc1
    3.1	.	-1.6	2.3	8.5	3.8	i	10.5
48) COc1ccc(C(=O)NC(=S)Nc2ccccc2N2CCOCC2)cc1Br
    7.8	-18.4	37.3	-3.8	0.7	2.0	i	-4.1
49) Cc1cccn2c(=O)c(/C=C(\C#N)C(N)=O)c(N3CCN(c4cccc(Cl)c4)CC3)nc12
    0.5	.	12.6	-0.7	-1.4	14.6	i	-0.7
50) O=C(Nc1cc2c(cc1C(=O)O)OCCCO2)c1ccc(F)cc1F
    8.2	-13.9	.	-2.3	9.0	-8.3	i	-1.7
51) CCc1nc2ccc(C(=O)NCc3ccc(OC)cc3)cn2c1N(CCC(C)C)CCN(C)C
    .	-8.9	.	-1.2	.	-21.2	.	2.2
52) COC(=O)C1C2C=CC3(CN(Cc4ccco4)C(=O)C13)O2 (stereo unspecified)
    -1.0	1.1	-6.9	8.2	-2.9	.	i	1.1
53) COc1cccc(NC(=O)CSc2nc3c(sc4ccccc43)c(=O)n2CCN(C)C)c1
    1.1	.	1.6	0.4	-1.9	18.4	i	-3.5
54) O=S(=O)(c1cc(Cl)ccc1Cl)N1CC2CCCN2c2ccc(C(F)(F)F)cc21 (stereo unspecified)
    -8.8	-14.0	42.0	7.4	4.4	6.6	i	-6.8
55) Cc1onc(-c2ccccc2)c1C(=O)NCc1ccc2c(c1)OCO2
    5.0	-5.5	-8.3	0.9	-6.8	.	i	-3.6
56) CC(C)CN(C(=O)Cn1c(C(F)(F)F)nc2ccccc21)C1CCS(=O)(=O)C1 (stereo unspecified)
    .	.	-2.2	1.6	.	6.8	i	1.8
57) CC(=O)C(Cc1ccc(Cl)nc1)Cc1ccc(Cl)nc1
    0.1	.	5.0	0.2	-7.0	-4.9	i	-4.0
58) CC(=O)Nc1ccc(-c2sc(Nc3cccc4ccccc34)n[n+]2-c2ccccc2)cc1
    -4.2	-24.2	2.6	-1.7	-10.8	-23.1	i	0.7
59) COc1ccc(/C=C2\C(=N)N3N=C(CC(=O)N4CCOCC4)SC3=NC2=O)cc1
    1.1	-18.0	-7.2	-7.8	-3.5	-3.7	i	-0.5
60) COc1cc(/C=C/CN2CCC(Oc3ccc(C(=O)N4CCCC4)cc3)CC2)ccc1O
    41.7	-7.7	.	3.0	-5.2	11.7	i	1.1
61) COc1cccc(C(=O)NC(=S)Nc2ccccc2N2CCCC2)c1
    6.2	.	-5.5	8.0	-7.2	-9.3	i	9.2
62) C[C@H](CO)N1C[C@H](C)[C@@H](CN(C)C(=O)NC2CCCC2)Oc2cc(Br)ccc2S1(=O)=O
    .	17.0&20.3	.	0.0	.	30.1	.	1.8
63) CCC(/C=N/Nc1ccc(S(=O)(=O)N2CCCC2)cc1[N+](=O)[O-])CC
    -5.7	-3.1	-2.4	13.9	-0.7	.	i	2.9
64) Cc1[nH]c(=S)c(C#N)c(C)c1CCC#N
    6.3	.	-7.2	-2.7	-1.9	3.9	i	-0.8
65) COc1ccc(OC)c(NC(=S)NCc2cccnc2)c1
    -4.7	-27.8	-0.2	-0.5	0.1	-3.7	i	-1.5
66) COc1ccc(CCNC(=O)Cn2c(=O)n(CCCC(=O)NCc3ccco3)c(=O)c3sccc32)cc1OC
    43.4	.	-3.3	2.2	1.3	-33.3	i	1.9
67) COc1ccc(OCc2cc(C(=O)N[C@H]3CCCCNC3=O)no2)c(Cl)c1
    -1.7	7.9	-2.1	-0.9	-18.5	-17.5	i	0.9

Some of the compounds tested, so the mix of outcomes need not match the whole.
